# Assay outcomes as filed in PubChem BioAssay.
# Mtb growth: Confirmatory growth inhibition assay against Mycobacterium tuberculosis H37Rv, potency (AID 1949). most inactive calls were filed without a number and no value below 0 was filed. inhibition, % at 10 µg/mL, or IC50 in µg/mL where a hit was titrated. hit rate 1.6% among 100,000;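 active = confirmed in a dose series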;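 also: bacteria grown 7 days with compound before Alamar blue readout; 0% = untreated bacteria and 100% = reference antibiotic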
# Active calls of the source: *; i = inactive.
SMILES,Mtb growth
O=C(NCCc1ccccc1)c1ccc(COc2ccc(Cl)cc2)o1,i
COc1cccc(NC(=O)Cn2c(C)cc(=O)c3cccc(C)c32)c1,i
COc1ccc(CNC(=O)C2COc3ccccc3O2)cc1 (stereo unspecified),2%
CN(c1ccc(C(=O)NCCSC(C)(C)C)cc1)S(C)(=O)=O,i
CCc1cccc(CC)c1NC(=O)COc1ccc(C)cc1Br,7%
Cc1cc(Cl)ccc1N(CC(=O)Nc1cccc(C)c1C)S(C)(=O)=O,i
Cc1ccc(N2CC(c3nc4ccccc4n3Cc3ccccc3C)CC2=O)c(C)c1 (stereo unspecified),i
CCCCNCCCOc1ccc(I)cc1,i
O=C(Nc1cccc(C(=O)N2CCCCC2)c1)C(c1ccccc1)c1ccccc1,i
Cc1ccc(-c2cc3nc4c(c(=O)n3[nH]2)SCC4)cc1,5%
CCOc1ccccc1OCC(=O)Nc1ccc2c(c1)OCO2,i
CC(=O)Oc1ccc(C(=O)Nc2cccc3c2C(=O)NC3=O)cc1,i
COC(=O)c1[nH]c(C)c(/C(O)=C2\C(=O)C(=O)N(CCCN3CCOCC3)C2c2ccccn2)c1C (stereo unspecified),i
CC(=O)Nc1ccc(NC(=O)C2CCN(S(=O)(=O)c3ccc(Cl)cc3)CC2)cc1,i
COC(=O)c1ccc(Oc2nc(N3CCCCC3)nc(N3CCOCC3)n2)cc1,20%
O=C(CCN1C(=O)c2ccccc2C1=O)N1CCN(C(=O)c2ccccc2)CC1,i
O=C(ON1C(=O)c2ccccc2C1=O)C1CCCCC1,i
CC(C)CC1C(C#N)=C(N)Oc2n[nH]c(-c3ccccc3)c21 (stereo unspecified),i
Cn1c(SCC(=O)c2cc3ccccc3o2)nnc1-c1ccccc1,i
CC(Sc1ccc(Cl)cc1)C(=O)Nc1cccc(F)c1 (stereo unspecified),19%
CC(C)C(=O)Nc1cccc(C(=O)N2CCN(c3ccccc3)CC2)c1,i
CCNS(=O)(=O)c1ccc(NC(=S)Nc2ccc([N+](=O)[O-])cc2OC)cc1,i
COCCNC(=O)C(C)N1C(=O)c2cccc3cccc1c23 (stereo unspecified),i
Cc1cccn2c(=O)c3cc(C(=O)NCc4cccnc4)sc3nc12,3%
O=C(c1cccnc1)N1CCN(C(=O)c2cccs2)CC1,i
CC(C)Oc1ccc(N2CC(C(=O)Nc3ccccc3F)CC2=O)cc1 (stereo unspecified),27%
CC(Nc1n[nH]c(=S)[nH]c1=O)C(=O)OCc1ccccc1 (stereo unspecified),3%
CCOc1cc(OCC)c(C=O)cc1Br,i
COC(=O)c1ccccc1NC(=O)c1nc2nc(C)cc(C)n2n1,i
C=CCN(CC=C)C(=S)Nc1ccc2c(c1)OCO2,i
Cc1occc1C(=O)n1nnc2ccccc21,i
Cc1ccc(S(=O)(=O)N(C)c2ccccc2C(=O)Nc2ccc(Br)cc2F)cc1,i
N#C/C(=C/c1ccc(Cl)s1)c1ccc(C(=O)O)cc1,i
O=C(CSc1ccccn1)Nc1ccc(Oc2ccccc2)cc1,i
CCN1CCN(C(=O)CN(c2ccc(C)cc2)S(=O)(=O)c2ccc(F)cc2)CC1,i
O=C(COc1ccc2ccc(=O)oc2c1)c1ccc(Br)cc1,6%
O=[N+]([O-])c1ccc(CSc2nnc(-c3ccccc3)n2-c2ccccc2)cc1,i
Cc1cc(Cl)ccc1OC(C)C(=O)NCCCN1CCOCC1 (stereo unspecified),i
Cn1c(=O)c2c(nc(NCc3ccccc3)n2CC(=O)NCc2ccccc2)n(C)c1=O,5%
COc1ccccc1C(=O)Nc1ccc(S(=O)(=O)NCCc2ccccc2)cc1,i
CCN(CC)c1ccc(NC(=O)CCc2ccccc2)cc1C,i
O=C(COc1ccccc1)NC(=S)Nc1ccc2oc(=O)ccc2c1,i
O=C(Nc1cccc(-c2nnc(-c3ccccc3)o2)c1)c1ccccc1Cl,i
O=C(COc1ccc(Cl)cc1)Nc1ccc2oc(-c3cccc(F)c3)nc2c1,i
O=C(O)CCN1Cc2ccc([N+](=O)[O-])cc2C1=O,i
CCC(C)c1ccc(O)c(NC(=S)NC(=O)c2ccc(-c3ccc(Cl)cc3)o2)c1 (stereo unspecified),<0.1µg/mL*
CCCOc1ccc2c(c1)C(=O)c1cc(OCC(=O)O)ccc1-2,i
Cc1ccc(OCCSc2nnc(NC(=O)Nc3ccccc3F)s2)cc1,i
COc1ccc(CSc2nnc(NC(C)=O)s2)cc1[N+](=O)[O-],0%
CC1CCC(N2CCN(Cc3ccccn3)CC2)CC1 (stereo unspecified),i
O=C(Nc1ccc(S(=O)(=O)N2CCCC2)cc1)c1ccco1,i
CCC(Sc1nc(N)cc(=O)[nH]1)C(=O)Nc1nnc(C)s1 (stereo unspecified),0%
Cc1ccc(NS(=O)(=O)c2cc(C(=O)NCc3ccc4c(c3)OCO4)ccc2Cl)c(C)c1,0%
O=C1OCCC1Sc1nnnn1-c1ccc(Cl)cc1 (stereo unspecified),2%
Cc1c(NS(=O)(=O)c2ccc(Br)s2)c(=O)n(-c2ccccc2)n1C,i
COc1cc(C(=O)NC(=S)Nc2cccc(-c3cc4ccccc4oc3=O)c2)cc(OC)c1OC,1%
CC(=O)Nc1ccc(C(=O)N(C)c2ccccc2)cc1,i
c1cc(-c2nnc3scnn23)ccn1,i
CCOCC(=O)Nc1sc2c(c1C(=O)OCC)CCCC2,i
O=C(NCc1ccccc1Br)c1cccnc1,i

# More compounds:
SMILES,Mtb growth
Cc1ccc(C(C)C)cc1S(=O)(=O)N1CCN(c2cccc(Cl)c2C)CC1,3%
O=C(COc1ccccc1)N1CCN(Cc2cccnc2)CC1,i
CNc1nc(C23CC4CC(CC(C4)C2)C3)cs1,4%
CCOC(=O)C1=CN(Cc2ccc(OC)cc2)C=C(C(=O)OCC)C1c1ccc(O)c(OCC)c1,3%
C=C(C)Cn1c(CCCC)nc2ccccc21,i
O=C(NN1CCOCC1)c1sc2cc([N+](=O)[O-])ccc2c1Cl,i
CCc1cc(C(=O)OC)c(NC(=S)N2CCc3ccccc3C2)s1,i
Cc1ccc(CNc2oc(-c3ccco3)nc2C#N)cc1,i
O=C(CSc1nnc(-c2ccccc2Cl)n1C1CCCCC1)NCc1ccco1,i
Cc1ccc(NC(=O)Nc2ccccc2)cc1[N+](=O)[O-],i
Cc1c(Cl)cccc1NC(=S)NCc1ccccc1,i
COc1ccc(NC(=O)CSc2c(-c3ccccc3)c3cc(Cl)ccc3[nH]c2=O)cc1,i

# A stretch from further up, for reference:
SMILES,Mtb growth
c1cc(-c2nnc3scnn23)ccn1,i
CCOCC(=O)Nc1sc2c(c1C(=O)OCC)CCCC2,i
O=C(NCc1ccccc1Br)c1cccnc1,i
Cc1ccc(C(C)C)cc1S(=O)(=O)N1CCN(c2cccc(Cl)c2C)CC1,3%
O=C(COc1ccccc1)N1CCN(Cc2cccnc2)CC1,i
CNc1nc(C23CC4CC(CC(C4)C2)C3)cs1,4%
CCOC(=O)C1=CN(Cc2ccc(OC)cc2)C=C(C(=O)OCC)C1c1ccc(O)c(OCC)c1,3%
C=C(C)Cn1c(CCCC)nc2ccccc21,i
O=C(NN1CCOCC1)c1sc2cc([N+](=O)[O-])ccc2c1Cl,i
CCc1cc(C(=O)OC)c(NC(=S)N2CCc3ccccc3C2)s1,i
Cc1ccc(CNc2oc(-c3ccco3)nc2C#N)cc1,i
O=C(CSc1nnc(-c2ccccc2Cl)n1C1CCCCC1)NCc1ccco1,i
Cc1ccc(NC(=O)Nc2ccccc2)cc1[N+](=O)[O-],i

# Next entries
SMILES,Mtb growth
CCOC(=O)c1c(NC(=O)CSc2ncn[nH]2)sc2c1CCCCC2,i
O=S(=O)(Nc1ccc(C23CC4CC(CC(C4)C2)C3)cc1)c1ccccc1,i
CC(C(=O)NCc1ccccn1)c1ccc([N+](=O)[O-])cc1 (stereo unspecified),i
O=C1CC(N2CCOCC2)C(=O)N1c1ccc(Cl)cc1 (stereo unspecified),i
COc1ccccc1OCC(=O)Nc1ccc(I)cc1C,i
COc1ccc(S(=O)(=O)N2CCN(c3ccc([N+](=O)[O-])cc3C(F)(F)F)CC2)cc1OC,i
CC(C)CCOc1cccc(C2c3c(oc4ccccc4c3=O)C(=O)N2c2nccs2)c1 (stereo unspecified),i
CCOC(=O)C1CCN(CCC(=O)Nc2cccc(F)c2)CC1,i
Cc1ccc(C)c(NC(=O)COc2ccc(C(=O)Nc3ccccc3C)cc2)c1,i
CS(=O)(=O)N1CCN(C(=O)c2ccc3c(c2)OCO3)CC1,i
Cc1noc(NS(=O)(=O)c2ccc(NC(=O)COc3ccccc3Br)cc2)c1C,i
O=C(COc1ccccc1F)N1CCCCCC1,i
O=C(CSc1nnc(-c2ccccc2)o1)c1ccc2ccccc2c1,i
Cc1ccc(OCc2ccccc2)c(C=O)c1,6%
COC(=O)C1=C(O)CSC1=Nc1ccccc1,i
O=C(Nc1ccc(N2CCN(C(=O)c3cccs3)CC2)c(Cl)c1)c1cc(I)ccc1Cl,47%
CCN(CC)C(=O)C(=O)Nc1ccc(F)cc1F,i
CCNC(=S)Nc1cc(OC)ccc1OC,i
Cc1nc(NC(=O)c2ccoc2C)sc1C,i
c1ccc2c(c1)Oc1ccccc1C2N1CCOCC1,i
COc1ccc(C(=O)NCc2nnc(SCC(=O)Nc3cccc(Cl)c3C)n2C)cc1OC,i
O=C(Nc1nc(C23CC4CC(CC(C4)C2)C3)cs1)C1CCCO1 (stereo unspecified),4%
Cc1ccc(C)c(CN2C(=O)C(=O)c3ccccc32)c1,32%
Nc1nonc1-c1nc2ccccc2n1Cc1ccccc1Br,i
CC1CCN(C(=O)c2ccc(N(C)S(C)(=O)=O)cc2)CC1,i
O=C(O)c1ccccc1-c1nc(-c2ccccc2F)no1,i
COc1cccc(N2CCN(C3CC(=O)N(c4cccc(C)c4)C3=O)CC2)c1 (stereo unspecified),i
COC(=O)c1sc(NC(=O)c2cccc(OCC(C)C)c2)c(C#N)c1C,i
COc1ccc(OC(=O)c2ccc(C)c(I)c2)cc1,34%
COc1cccc(NC(=O)c2cnsn2)c1,1%
COCc1n[nH]c(=S)n1-c1ccccc1,i
COc1cc(NC(=O)c2cccc3c(Br)cccc23)ccc1NC(=O)C(C)C,i
Cc1ccccc1NS(=O)(=O)c1cc(N(C)S(=O)(=O)c2ccc(Cl)cc2)c(C)cc1C,i
CCN(CC)CCCN1C(=O)C(O)=C(C(=O)c2cccs2)C1c1cc(OC)ccc1OC (stereo unspecified),i
O=C(CNS(=O)(=O)c1ccc(Br)cc1)NC1CCCC1,i
Cc1ccc(C)c(NC(=O)C2CCN(S(=O)(=O)c3ccccc3)CC2)c1,i
COc1cc(CNc2ccc(Br)cc2)cc(OC)c1,1%
c1ccc(N2CCN(C3CCN(Cc4cccc5ccccc45)CC3)CC2)cc1,i
O=S(=O)(NC1c2cccc3cccc(c23)C1N1CCNCC1)c1ccccc1 (stereo unspecified),i
O=C(CC1(O)C(=O)N(Cc2cccc3ccccc23)c2ccccc21)c1cccs1 (stereo unspecified),i
c1cc2c(c(CN3CCOCC3)c1)COC2,i
CCOC(=O)Cc1csc(NC(=S)NC(=O)c2ccco2)n1,i
COc1cccc(C(=O)Nc2ccccc2NC(C)=O)c1OC,i
CCCC(=O)Nc1ccccc1NC(=O)c1ccc(C)cc1Cl,i
Cc1cc(C)nc(SCc2noc(-c3ccc(Cl)cc3)n2)n1,i
COc1ccc(Cl)cc1N1Cc2cc(C)c(C)cc2C1,i
COc1ccc(NC(=O)CCC(=O)OCc2ccc(Cl)c(Cl)c2)cc1,i
O=C(COc1ccc(NC(=O)c2ccc(Cl)cc2Cl)cc1)c1ccc(F)cc1,1%
Cc1[nH]nc(-c2ccc(O)cc2O)c1-c1nc2ccccc2s1,7%
CCOc1ccccc1NS(=O)(=O)CC,1%
CCOc1ccc(N2CC(C(=O)Nc3ccc(F)cc3)CC2=O)cc1 (stereo unspecified),i
Cc1ccc(Nc2ncnc3sc4c(c23)CCCC4)cc1Br,i
Cc1ccc(C(=O)/C=C/c2ccc(-c3cccc(C(F)(F)F)c3)o2)cc1,i
CCOC(=O)c1c(-n2c(C)nc3ccccc3c2=O)sc2c1CCCC2,i
Cc1ccccc1-c1cc(C(=O)NCCN(C)C)c2ccccc2n1,i
CCOC(=O)c1cnc2c(OC)cccc2c1NCc1cccnc1,i
CSc1nnc(-c2ccccc2NC(=O)c2ccccc2)c(=O)[nH]1,i
CC(Oc1ccc(Br)cc1)C(=O)NCc1ccc(F)cc1 (stereo unspecified),1%
C=CCNC(=S)NNC(=O)COc1c(Cl)cc(Cl)cc1Cl,i
CCc1ccccc1OCCCNC(C)CC (stereo unspecified),i

# Next compounds follow.
SMILES,Mtb growth
Cc1cc(OCC(=O)N(C(C)C)C(C)C)cc(C)c1Cl,i
COc1ccc(CCC(C)NCc2ccc(OC)cc2)cc1 (stereo unspecified),i
COc1ccc(CNC(=O)CSCc2c(F)cccc2Cl)cc1,7%
O=C(COc1ccccc1CO)Nc1ccc(Cl)c(Cl)c1,10%
CC(C)NC(=O)c1ccccc1NC(=O)COc1ccc(Cl)cc1,2%
Cc1ccc(S(=O)(=O)N2C(=O)CCC2C(=O)O/N=C(\N)c2cccc([N+](=O)[O-])c2)cc1 (stereo unspecified),i
Cc1c(CC(=O)O)c(=O)oc2cc(OCc3ccccc3Br)ccc12,i
CC(=O)c1cccc(NS(=O)(=O)c2cc(C(=O)Nc3cccc(C(=O)O)c3)ccc2C)c1,i
Cc1ccc(COc2ccc(CO)cc2Cl)cc1,1%
OCCCNCC(O)CN1c2ccccc2Sc2ccccc21 (stereo unspecified),i
O=C(Nc1nc2ccc(Br)cc2s1)c1cn(-c2ccccc2)nc1-c1cccnc1,9%
Clc1ccc(OCc2ccccc2Cl)c(CNc2ncn[nH]2)c1,33%

# The list is partial, so the mix of outcomes need not match the whole.
